# Screens as filed in PubChem.
# AmpC nodet inh: inhibitors of E. coli AmpC beta-lactamase without detergent. P00811. AmpC nitrocefin hydrolysis, absorbance 480 nm, no detergent; potencies from a single point are estimates. Potency, µM (series often up to 28.7 µM), for inactives: at the top dose activity change, negative = inhibition. 71,000 compounds, 1.8% hits. AID 585; active = falling curve, for most hits resting on a single point; inconclusive = weak or doubtful change; inactive = flat or rising curve; also: % of control where 0% means no effect; about half of the hits show no inhibition at the top dose; a quarter of the inactives give rising signals
# Target sequence (P00811 whole entry, looked up): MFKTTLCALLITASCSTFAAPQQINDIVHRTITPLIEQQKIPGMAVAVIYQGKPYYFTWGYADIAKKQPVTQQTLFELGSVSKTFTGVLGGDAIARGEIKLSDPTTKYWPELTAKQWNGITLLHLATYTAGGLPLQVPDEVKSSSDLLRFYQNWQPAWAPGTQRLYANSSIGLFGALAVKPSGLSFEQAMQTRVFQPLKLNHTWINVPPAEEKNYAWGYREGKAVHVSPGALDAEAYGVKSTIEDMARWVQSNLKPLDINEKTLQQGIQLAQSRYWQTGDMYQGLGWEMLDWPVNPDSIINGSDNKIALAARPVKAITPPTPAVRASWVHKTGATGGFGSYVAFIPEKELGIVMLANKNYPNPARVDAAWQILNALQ
#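 Enzyme, pH 7.0 phosphate. Compound titrations were pre-incubated with AmpC for 15 min at room temperature before nitrocefin (stock 800 uM) addition; product formation was recorded at 480 nm every 20 s for 4 min.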
# The depositor's hits bear a star; ? = inconclusive; [ ] = another dose, or the depositor's remark. Potency is read from the fitted curve at half-maximal effect. A portion of the library; rates above refer to the full screens.
SMILES,AmpC nodet inh
CCC(=O)N1c2ccc(S(=O)(=O)CCC(=O)Nc3nccs3)cc2CC1C (stereo not drawn),-19%
COC(=O)c1cccc(NC(=O)CSc2nnc(COc3ccc(C#N)cc3)n2-c2ccccc2)c1,66%
O=C(O)CCCC(=O)Nc1c(F)c(F)c(F)c(F)c1F,-14%
COc1ccc(OCC(=O)N2CCN(c3cccc(C(F)(F)F)c3)CC2)cc1,62%
Clc1ccccc1-c1ccc2ncnc(N3CCNCC3)c2c1,5%
ON(CCc1ccccn1)Cc1ccccc1,6%[5.75 µM]
NC(=O)CSc1nnc(COc2ccccc2)n1CCc1ccccc1,68%
COC(=O)[C@@]1(Cc2ccc(F)cc2)[C@H]2c3cc(C(=O)N(C)C)n(Cc4cc(C)n(C)n4)c3C[C@H]2CN1C(=O)c1ccccc1,160%
CCN(CCCNC(=O)c1cn(CC)c2ccc(S(=O)(=O)N(C)C)cc2c1=O)c1cccc(C)c1,126%
O=C(Nc1ccc(N2CCN(C(=O)c3ccco3)CC2)cc1)c1ccc2c(c1)OCO2,6%
Cc1cccc(NC(=O)C2CCCN2S(=O)(=O)c2ccc(F)cc2)c1C (stereo not drawn),27%
COc1ccc(S(=O)(=O)N2CCC(C(=O)NCc3ccccn3)CC2)cc1C,110%
O=S(=O)(Nn1cnnc1)c1ccccc1Cl,-12%
CC1(C)CC(NC(=O)C23CCC(C)(C(=O)C2)C3(C)C)CC(C)(C)N1 (stereo not drawn),-5%
CCN(CC)CCNC(=O)c1ccc(N2CCCCC2)c(NS(=O)(=O)c2ccc(C)cc2)c1,92%
Cc1cc(C)nc(-n2nc(C)c(Oc3ccccc3O)c2C)n1,23%
CCC(C)(C)c1ccc(Oc2cccc(C(=O)O)c2)cc1,-3%[5.75 µM]
CCN1C(=O)/C(=C2\C=Cc3ccccc3N2CC)OC1=S,11%
CN(C(=O)c1cccnc1)c1nnc(-c2cccnc2)s1,4%
O=C(O)C1C2C=CC3(CN(CC(O)COc4ccccc4)C(=O)C13)O2 (stereo not drawn),4%
COc1cc(-c2nnc(Cn3cc(C(F)(F)F)ccc3=O)o2)cc(OC)c1OC,50%
O=C(Cc1ccc(-n2c(=O)[nH]c3ccccc3c2=O)cc1)N1CCN(c2ccccc2)CC1,28%
Cn1c(SCC(=O)N2CCN(c3ccccc3)CC2)nnc1-c1cc2ccccc2o1,42%
CCn1c(CSc2ncccn2)nnc1SCC(=O)N1CCc2ccccc21,60%
Cn1c(Cn2c(=O)sc3ccccc32)nnc1SCc1ccccc1,11%
Cn1c(=O)n(C)c2cc(C(=O)Nc3ccc4c(c3)OCO4)ccc21,3%
Fc1ccc(N2CCN(C(c3cccs3)c3nnnn3CCc3ccccc3)CC2)cc1 (stereo not drawn),24%
COc1cc(CC(=O)Nc2ncc(C)s2)cc(OC)c1OC,-9%
Clc1ccc(OCc2nn3c(C4CCCCC4)nnc3s2)c(Cl)c1,35%
CCCC(=O)NCCc1c2n(c3ccc(OC)cc13)Cc1ccccc1-2,34%
COc1cccc(Cn2c(=O)cnc3cnc(N4CCOCC4)nc32)c1,29%
Cc1ccc(NC(=O)CNS(=O)(=O)c2cccs2)cc1F,-16%
Nc1ncnc2c1ncn2CCN1CCOCC1,-6%
Cc1[nH]c2ccccc2c1C(=O)CSCC(=O)O,-4%
Cn1c(-c2ccc3nc(N)sc3c2)nc2cc(N)ccc21,-20%
CCOC(=O)Cn1c(=O)n(Cc2ccco2)c(=O)c2ccc(C(=O)NCCc3ccccc3)cc21,12%
CN(C)C(=O)c1nnc(Cc2ccc(Cl)cc2)o1,24%
O=C(CCCn1c(SCC(=O)NC2CCCC2)nc2ccccc2c1=O)NCC1CCCO1 (stereo not drawn),43%
Cc1noc(NS(=O)(=O)c2ccc(N3C(=O)c4ccccc4C3=O)cc2)c1C,6%
CCOC(=O)C1(N(CC)CC)Sc2cc(C)ccc2NC1=O (stereo not drawn),-6%

# Some of the entries so far, tab-delimited:
compound	AmpC nodet inh
O=C(O)C1C2C=CC3(CN(CC(O)COc4ccccc4)C(=O)C13)O2 (stereo not drawn)	4%
COc1cc(-c2nnc(Cn3cc(C(F)(F)F)ccc3=O)o2)cc(OC)c1OC	50%
O=C(Cc1ccc(-n2c(=O)[nH]c3ccccc3c2=O)cc1)N1CCN(c2ccccc2)CC1	28%
Cn1c(SCC(=O)N2CCN(c3ccccc3)CC2)nnc1-c1cc2ccccc2o1	42%
CCn1c(CSc2ncccn2)nnc1SCC(=O)N1CCc2ccccc21	60%
Cn1c(Cn2c(=O)sc3ccccc32)nnc1SCc1ccccc1	11%
Cn1c(=O)n(C)c2cc(C(=O)Nc3ccc4c(c3)OCO4)ccc21	3%
Fc1ccc(N2CCN(C(c3cccs3)c3nnnn3CCc3ccccc3)CC2)cc1 (stereo not drawn)	24%
COc1cc(CC(=O)Nc2ncc(C)s2)cc(OC)c1OC	-9%
Clc1ccc(OCc2nn3c(C4CCCCC4)nnc3s2)c(Cl)c1	35%
CCCC(=O)NCCc1c2n(c3ccc(OC)cc13)Cc1ccccc1-2	34%
COc1cccc(Cn2c(=O)cnc3cnc(N4CCOCC4)nc32)c1	29%
Cc1ccc(NC(=O)CNS(=O)(=O)c2cccs2)cc1F	-16%
Nc1ncnc2c1ncn2CCN1CCOCC1	-6%
Cc1[nH]c2ccccc2c1C(=O)CSCC(=O)O	-4%
Cn1c(-c2ccc3nc(N)sc3c2)nc2cc(N)ccc21	-20%
CCOC(=O)Cn1c(=O)n(Cc2ccco2)c(=O)c2ccc(C(=O)NCCc3ccccc3)cc21	12%
CN(C)C(=O)c1nnc(Cc2ccc(Cl)cc2)o1	24%
O=C(CCCn1c(SCC(=O)NC2CCCC2)nc2ccccc2c1=O)NCC1CCCO1 (stereo not drawn)	43%
Cc1noc(NS(=O)(=O)c2ccc(N3C(=O)c4ccccc4C3=O)cc2)c1C	6%
CCOC(=O)C1(N(CC)CC)Sc2cc(C)ccc2NC1=O (stereo not drawn)	-6%

# (cont.)
SMILES,AmpC nodet inh
COC(=O)c1c(-c2ccc(F)cc2)noc1N,-10%
COc1ccc(N(C(=O)c2ccco2)S(=O)(=O)c2cccs2)cc1,10%
O=C(NCc1ccco1)c1cc(-c2ccccn2)nc2ccccc12,40%
NCCNC(=O)c1ncsc1-c1cccc(F)c1,-8%
CCCn1c(C)nc2c(NC3CCN(Cc4ccccc4)CC3)nc(C)nc21,9%
N/C(CC(=O)NCCOc1ccccc1)=N\O,0%
COc1cc(OC)c(/C=C2/C(=O)Nc3ccccc32)c(OC)c1,26%
COc1cccc(-c2cc(C(=O)NCc3ccc(Cl)cc3)no2)c1,13µM*[single pt active]
CN1C(=O)N(C)C2C1N(C)S(=O)(=O)N2C (stereo not drawn),-7%
O=C(Nc1cccnc1N1CCOCC1)c1cc2ccccc2oc1=O,1%
Cc1ccc(S(=O)(=O)N2CCOCC2)cc1C(=O)N1CCOCC1,43%
CC(C)C(=O)Nc1ccc2c(c1)nc1n2CCSC1,-10%
Cn1cccc1Cc1nnc(SCC(=O)Nc2ccc(F)cc2F)n1-c1ccc(F)cc1,103%
c1ccc(Nc2nc3ccccc3[nH]2)nc1,-17%
O=C(CCn1cnc2ccccc2c1=O)Nc1cccc(Cl)c1,-7%
CCOC(=O)N1CCC(n2c(SCC(=O)Nc3nccs3)nc3ccsc3c2=O)CC1,46%
O=C(NCc1ccc(F)cc1)C1CCN(S(=O)(=O)N2CCCCC2)CC1,14%
C[C@@]12CC[C@H]3[C@@H](CC[C@@H]4C[C@H]5S[C@H]5C[C@]43C)[C@H]1CC[C@H]2O,8%[12.8 µM]
CCOc1ccccc1C1CC(c2ccc(Br)cc2)Nc2nc(N)nn21 (stereo not drawn),110%
COc1ccc(CN(C(=O)c2ccco2)c2ccc(Br)cc2)cc1OC,?
CCOCCCN1CC(C(=O)NCCc2ccc(C)cc2)CC1=O (stereo not drawn),11%
Cc1ccc(CN2C(=O)CCC2C(=O)NC(C)C)cc1 (stereo not drawn),-4%
CCOC(=O)CN(C(=O)CNC(=O)c1ccco1)C(C(=O)NC1CCCC1)c1ccccc1OCC (stereo not drawn),49%
Cc1ccccc1C1CC(c2ccc(F)cc2)Nc2nc(N)nn21 (stereo not drawn),4µM*[single pt active]
Cc1cccc(C(OC(=O)c2ccco2)C(=O)NCc2ccccc2)n1 (stereo not drawn),14%
CCOC(=O)c1c(C)n(C)c2ccc(OCC(O)CN3C(=O)c4ccccc4S3(=O)=O)cc12 (stereo not drawn),62%
CCOC(=O)C1CCCN(C(=O)CN2C(=O)COc3ccc(C(C)(C)C)cc32)C1 (stereo not drawn),97%
CC(C)(C)N(Cc1cc2ccccc2[nH]c1=O)C(=O)c1cccnc1,19%
CCOC(=O)C1=C(O)CSC1=Nc1ccc(Cl)cc1,-4%
O=C(CSc1nnc(CNC(=O)c2cccs2)o1)NCc1ccc(F)cc1,-6%
O=C(Oc1c(Cl)cc(Cl)c2cccnc12)N1CCCCC1,64%
C/C(=N/NC(=O)c1ccncc1)c1ccccc1Cl,-5%[5.75 µM]
c1n[nH]c(SCCCCSc2ncn[nH]2)n1,-16%
CC(=O)c1cc2c(cc1NC(=O)CN1CCOCC1)OCO2,10%
O=C(NCCC1=CCCCC1)C1CC(=O)N(C2CCCCCC2)C1 (stereo not drawn),83%
Cc1ccc(S(=O)(=O)N2CCN(C(=O)CSc3nnc(C)c(=O)[nH]3)CC2)cc1,12%
CC(=C1C2C=CC1C1C(=O)NC(=O)C21)c1ccccc1 (stereo not drawn),-7%
O=C(CSc1nc2ccccc2c(=O)n1Cc1ccco1)NCc1ccccc1,-23%
COC(=O)Cn1cnc2c(nnn2-c2ccc(C)cc2)c1=O,1%
O=C(c1ccc2c3c(cccc13)CC2)N1CCOCC1,13%

# 2 consecutive records out of the list so far, for reference:
SMILES,AmpC nodet inh
O=C(Oc1c(Cl)cc(Cl)c2cccnc12)N1CCCCC1,64%
C/C(=N/NC(=O)c1ccncc1)c1ccccc1Cl,-5%[5.75 µM]

# The results go on.
SMILES,AmpC nodet inh
Cc1nnc(NC2=NCCCCC2)o1,-2%
O=C1CC(c2ccc(Cl)cc2)n2nc(N3C(=O)CCC3=O)nc2N1 (stereo not drawn),-12%
CSCC[C@H](NC(=O)NCc1cccs1)C(=O)O,-4%
O=C(Nc1ccc2c(c1)OCCO2)c1cc(-n2cnnc2)ccc1Cl,-6%
CC1(C)CC(=O)C2=C(C1)OC(N)=C(C#N)C2c1ccc(OC(=O)N2CCOCC2)cc1 (stereo not drawn),22%
CCCn1c(-c2ccc(F)cc2)nc2c(NCCCN3CCOCC3)nc(C)nc21,87%
c1ccc(-n2nnnc2Oc2ccc(-n3ccnc3)cc2)cc1,14%
Cc1cccc(CNc2nc(-c3cccnc3)nc3ccccc23)c1,20%
Cc1cc(NC(=O)c2sccc2C)n(-c2cccc(Cl)c2)n1,1%
Cc1ccc(-n2ncc3c(=O)n(CC(=O)NC4CCCCC4)cnc32)cc1,-23%
CCC1CCCCN1CCNC(=O)CNS(=O)(=O)c1ccc2nc(C)sc2c1 (stereo not drawn),6%
CCNC(=O)CN(c1ccc(C)cc1)S(=O)(=O)c1ccc(SC)cc1,86%
CCCS(=O)(=O)N1CCC(C(=O)NC2CCC(C)CC2)CC1 (stereo not drawn),16%
CC(C)C[C@@H](CC(=O)N[C@H](CC(=O)N[C@@H]1CCNC[C@H]1C(=O)N[C@H](CC(=O)N[C@@H](CCC(=O)O)CC(=O)O)Cc1c[nH]c2ccccc12)C(C)C)NC(=O)[C@@H]1CCCC[C@H]1N,133%
Cc1ccc(CNC(=O)CSc2n[nH]c(N)n2)cc1,0%
O=C(O)Cc1c(O)ccc2ccccc12,-6%[5.75 µM]
COc1ncc2nc(-c3cccs3)c(=O)n(CCc3ccccc3)c2n1,2%
NC(=O)C/C=C\CC(N)=O,1%[5.75 µM]
O=C(Nc1cccc(Cl)c1)Nn1cnnc1,-2%[5.75 µM]
C(=N\n1cnnc1)/c1ccc(OCc2ccccc2)cc1,58%
Cc1ccc2c(c1)C(=O)[C@@]1(O)CCN(c3ccccc3)C1=N2,18%
COc1ccc(NC(=O)c2nc3nc(C)cc(C(F)F)n3n2)cc1OC,13%
O=c1c2c(-c3ccco3)csc2nc(SCc2cn3cccnc3n2)n1-c1ccccc1,86%
C=C[C@@H]1CN2CC[C@H]1C[C@H]2[C@@H](O)c1ccnc2ccccc12,-2%
O=C(c1noc2c1CCCCC2)N1CCOCC1,-2%
CN(C)c1ccc(N/C=C/C(=O)c2ccc(F)cc2)cc1,-21%
O=C(/C=N/O)Nc1cccnc1,3%
Cc1c(C#N)c2ncnc(N)c2n1-c1ccccc1,-7%
COc1ccc(CC2C(=O)OC(C)(C)OC2=O)cc1,-17%
Cc1cc(N)c2cc(NC(=O)Nc3ccc4nc(C)cc(N)c4c3)ccc2n1,-1%[5.75 µM]
O=C(CCn1c(=O)oc2ccccc21)NCc1ccc2c(c1)OCO2,10%
O=C(CN1CCOc2ccccc21)NCc1cccs1,11%
CC(NC(=O)CN1CCN(Cc2ccc(Cl)cc2)C1=O)c1ccc2c(c1)OCCO2 (stereo not drawn),81%
CC(Cc1ccccc1)C(=O)NCc1ccncc1 (stereo not drawn),-1%
COc1ccccc1N1CCN(CC(=O)Nc2cc(F)ccc2C)CC1,137%
Cc1c2oc3c(C)ccc(C(=O)N[C@@H]4C(=O)N[C@@H](C(C)C)C(=O)N5CCC[C@@H]5C(=O)N(C)CC(=O)N(C)[C@@H](C(C)C)C(=O)O[C@H]4C)c3nc-2c(C(=O)N[C@@H]2C(=O)N[C@@H](C(C)C)C(=O)N3CCC[C@@H]3C(=O)N(C)CC(=O)N(C)[C@@H](C(C)C)C(=O)O[C@H]2C)c(N)c1=O,134%
CCc1cc2c(-c3ccccc3)cc(=O)oc2c(CN2CCOCC2)c1O,107%
Cc1ccc(S(=O)(=O)c2nc(-c3ccco3)oc2SCC(=O)NCC2CCCO2)cc1 (stereo not drawn),36%
CCCNC(=O)C(Cc1ccccc1)NS(=O)(=O)c1ccc2c(c1)CCC(=O)N2 (stereo not drawn),4µM*[single pt active]
COc1cc2[nH]c(=O)c(C(=O)NCCCN3CCCCC3)c(O)c2cc1OC,31%
